# Assay outcomes from PubChem BioAssay.
# Calb FLC = affects C. albicans growth with fluconazole; C. albicans CaCi-2 (fluconazole-resistant clinical isolate) + fluconazole, Alamar Blue growth, 48 h; growth inhibition, % (test concentration not listed); hit rate 0.57% among 300,000; AID 1979;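 active = most replicates above 75%; inconclusive = exactly half above 75%; inactive = most below 75%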;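 note: all wells also contain fluconazole at 8 µg/ml as a sub-toxic cotreatment; 0% = median of DMSO wells and 100% = median of geldanamycin control wells; wells of about 8 µL received 7.5 nL stock; the first replicate is given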
# Vif A3G = HIV-1 Vif–A3G interaction blockers – biochemical, TR-FRET, GST-Vif 1-94, biotin-A3G peptide, dose response retest, primary screen (AID 1117319); hit rate 0.57% among 260,000; one-dose inhibition, %; IC50 in µM for titrated hits; TR-FRET GST-Vif / biotin-A3G peptide binding; higher % means a stronger effect; test concentration not given here; strong numbers were not always called active;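 active = above the screen mean plus three standard deviations and confirmed in dose response; inconclusive = results disagree or hit not tested in dose response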;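 note: Vif residues 1-94 fused to GST binding biotinylated APOBEC3G peptide 110-148; 0% = full assay without inhibitor and 100% = GST in place of GST-Vif; retest series ran down from 100 µM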
# A1 inh = inhibitors of the anti-apoptotic protein A1, read as caspase activation; MEF A1-2A-BIM cells, Caspase-Glo 3/7 luminescence, 3 h; percent of clofoctol response, vehicle zero; caspase activation, % (test concentration not listed); hit rate 0.066% among 330,000;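 active = over half of replicate activation scores above 10%, or exactly half above 10 with the replicate mean above 10; inconclusive = replicate mean below 10 yet half the replicates above 10; inactive = over half of replicates below 10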;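 note: wells of about 30 µL received 50 nL stock; many hits fall short of the cut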
# AF4-AF9 inh = inhibitors of human MLL-AF4/AF9 interaction. P42568. AlphaScreen, biotin-AF4 peptide binding to FLAG-AF9. inhibition, % at 10 µM. hit rate 0.47% among 350,000. AID 651704;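 active = every replicate reaching a set inhibition limit, whatever the replicate mean, cut at about 25% in these data; inconclusive = mean inhibition reaches that limit but some replicates miss it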;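 note: 0% = plate neutral control median and 100% = total signal loss; the record names both 10 and 1 µM as test concentration; the first replicate is given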
# Target sequence (P42568 whole entry, looked up): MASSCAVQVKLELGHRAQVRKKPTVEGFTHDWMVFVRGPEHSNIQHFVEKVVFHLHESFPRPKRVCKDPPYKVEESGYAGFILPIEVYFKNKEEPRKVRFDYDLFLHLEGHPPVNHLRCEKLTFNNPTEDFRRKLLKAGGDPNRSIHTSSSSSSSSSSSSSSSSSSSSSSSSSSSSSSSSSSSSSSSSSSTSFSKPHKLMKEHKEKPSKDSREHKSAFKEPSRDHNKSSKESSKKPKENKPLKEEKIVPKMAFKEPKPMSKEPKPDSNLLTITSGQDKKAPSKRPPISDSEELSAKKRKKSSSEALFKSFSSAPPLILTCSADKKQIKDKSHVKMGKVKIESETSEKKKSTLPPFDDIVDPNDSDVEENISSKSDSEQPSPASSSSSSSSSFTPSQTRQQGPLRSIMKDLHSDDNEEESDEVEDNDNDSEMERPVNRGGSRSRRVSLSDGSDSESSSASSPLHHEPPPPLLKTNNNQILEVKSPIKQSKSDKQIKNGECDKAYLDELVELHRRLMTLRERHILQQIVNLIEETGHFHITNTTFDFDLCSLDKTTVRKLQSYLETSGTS
# Ecoli rRNA inh = inhibits bacterial ribosomal RNA function over humanized ribosomes. hit rate 1.6% among 350,000. GFP signal change (wild-type ribosome), % (no concentration beside the values). E. coli WT GFP vs humanized-ribosome RFP mutants, fluorescence, 24 h; stronger effect = lower value; DMSO median 0, no signal -100;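 active = significant combined selectivity score with lowered wild-type GFP, culture density cut under 30%, mutant RFP and density less affected; inactive = any of these conditions unmet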; note: one replicate is shown; some compounds called inactive have numbers as strong as hits
# RanGTP-Impb inh = disruptors of Ran-importin-beta complex formation – biochemical, FRET, CFP-Ran, YFP-importin-beta, homogeneous, primary screen | hit rate 1.1% among 300,000 | cell-free CFP-Ran/YFP-importin-beta FRET ratio | inhibition, % (test concentration not listed);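 active = most replicates above 15%; inconclusive = exactly half above 15%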;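 note: 0% = DMSO wells and 100% = Ran loaded with GDP instead of GTP; wells of about 40 µL received 100 nL stock; the first replicate is given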
# Beta apoptosis = blocks beta cell apoptosis; INS-1E cytokine-induced death, ATP luminescence, 48 h; percent of positive-control rescue, neutral wells zero; protection from apoptosis, % (concentration not given with the values); hit rate 0.8% among 300,000;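 active = all replicates at 75% or more, or half of them and the mean; inconclusive = half reach 75% but not the mean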;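 note: 0% = cytokine-treated negative control wells and 100% = positive control rescue; higher means more ATP so stronger rescue from cytokine killing; wells of about 40 µL received 100 nL stock; the first replicate is given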
# T cruzi inh = blocks replication of Trypanosoma cruzi | hit rate 1.4% among 300,000 | inhibition, % (concentration not given with the values) | T. cruzi beta-gal in NIH3T3, luminescence, 90 h;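 active = mean inhibition across valid replicates above about 55%, limit read from the data; inconclusive = mean below that limit but half or more replicates reach it; inactive = mean below it, under half of replicates reach it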;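 note: signal also drops with host cell toxicity which is not excluded here; 0% = plate median of DMSO wells and 100% = zero luminescence signal; higher percent means less beta-gal luminescence so fewer parasites; stock transfer was 50 nL into about 50 µL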
# Ecoli rRNA inh OD600 = also measured in Ecoli rRNA inh; calls as there; OD600 change, %; measured here: OD600 growth;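 optical density of the mix in the first replicate; 0 = DMSO median and -100 = no signal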
# Ecoli rRNA inh RFP = recorded beside Ecoli rRNA inh, whose call it bears; RFP signal change, %; measured here: RFP humanized mutant strains;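 first replicate; 0 = DMSO median and -100 = no signal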
# Numbers without * were called inactive; ? = inconclusive; . = not tested or not shown; & = joins results of further samples.
SMILES,Calb FLC,Vif A3G,A1 inh,AF4-AF9 inh,Ecoli rRNA inh,Ecoli rRNA inh OD600,Ecoli rRNA inh RFP,RanGTP-Impb inh,Beta apoptosis,T cruzi inh
COc1ccc(C(=O)N[C@H](C(=O)Nc2ccc(OC)nc2)C(C)C)cc1,-6,18%,0.1,.,.,.,.,-0.1,-5,-3
S=C(NCCc1ccccc1)N1CCN(C2CCCCC2)CC1,-11,-4%,0.2,3.2,4,-6,1.0,?,-5,16
COc1ccc(CCNC(=O)CC2Nc3ccccc3NC2=O)cc1OC (centres undefined),-4,8%,0.1,.,.,.,.,1.2,-3,5
Cc1oc(CC(C)C)c(CN)c1C(=O)O,0,?,0.8,-83,10,6,-3.0,2.8,-1,-27
CCC(CO)Oc1cc(NC(=O)c2cccc([N+](=O)[O-])c2)c2ncn(C(C)C)c2c1 (centres undefined),.,.,0.1,5.7,-11,17,13,.,-3,.
CC(C)c1ccc(/C=C2\SC(=S)N(CC(=O)NCCCN3CCOCC3)C2=O)cc1,-2,.,-0.4,7.9,-17,0,7.7,3.7,3,-5
Cn1c(Oc2ccc3c(c2)OCO3)nc2c1c(=O)n(Cc1ccccc1)c(=O)n2C,4,-2%&-10%,-0.4,1.9,.,.,.,2.9,9,-5
CSc1nc2nc(-c3cccs3)cc(C(F)(F)F)c2c(=O)[nH]1,10,.,-1.0,1.1,10,1,2.3,4.2,-3,-9
COc1ccc(S(=O)(=O)Nc2cc(C)ccc2OC)cc1C,-4,1%,0.9,.,.,.,.,11,-7,5
COc1ccc(-c2nnc(SCCc3ccccc3)n2N)cc1,-1,2%,0.2,.,.,.,.,-2.8,2,.
CCCCc1nc2cc(C(=O)N3CCN(c4cnccn4)CC3)ccc2o1,-6,.,0.1,1.0,-2,-3,-4.3,0.0,1,6
CCN(CCNC(=O)CN1CCN(Cc2ccc(Cl)cc2)C1=O)c1ccccc1,10,2%&3%,-1.1,.,.,.,.,-1.5,0,.
Cc1ncoc1C(=O)NCCC(c1ccccc1)c1ccccc1,-4,.,-0.4,-2.5,-22*,-9.1*,0.2*,-3.1,-4,-5
CCCCC(=O)NC(=S)NNC(=O)CC,3,.,-0.1,.,.,.,.,-1.1,-7,-3
COc1ccccc1C(=O)Nc1nc2cc3c(cc2s1)OCCO3,2,-9%,-6.7,.,.,.,.,-5.1,22,-7
COc1cc(/C=N/N=C(/N)c2nonc2N)cc(Br)c1OCc1cccc(C)c1,17,-4%,0.3,.,.,.,.,-1.8,3,40
CCn1cc([N+](=O)[O-])c(C(=O)Nc2cc(C)on2)n1,12,23%,0.1,.,.,.,.,3.7,.,-15
COc1ccccc1NS(=O)(=O)c1cc(C(=O)N2CCN(C/C=C/c3ccccc3)CC2)ccc1C,-14,.,0.5,12,-35,-51,-9.6,-2.2,4,50
COc1ccc2nc(NC(=O)C3CCCN(S(=O)(=O)c4c(C)noc4C)C3)sc2c1 (centres undefined),-8,-11%&-2%,-0.1,3.2,-8,-10,4.5,-2.4,-2,8
COc1ccc(C)cc1S(=O)(=O)N(C)CC(=O)NC1CCCCC1,-8,-4%,0.6,.,.,.,.,12,-8,-7
Nc1nnc(Sc2ncccc2[N+](=O)[O-])s1,6,8%,-0.2,-3.6,24,7,-10,1.1,-7,-39
COC(=O)c1ccc(C2NC(=O)c3ccccc3O2)cc1 (centres undefined),0,-8%,1.5,0.5,10,15,0.8,0.0,-11,-43
CC(C)(C)OC(=O)n1cc(CCO)c2ccccc21,.,.,3.1,-4.9,7,4,14,.,-1,.
Cc1cc(Nc2ccc(F)c(Cl)c2)n2ncnc2n1,-7,-2%,-1.4,0.3,15,13,-0.3,9.1,-1,-7
CCOc1ccc(NC(=O)CCN2C(=S)NC(C)(C)CC2C)cc1 (centres undefined),-47,6%,1.1,1.9,4,3,0.0,-2.8,2,-7
Cc1cc(C(=O)OCC(=O)c2cccs2)c2ccccc2n1,1,.,-0.3,-0.7,8,11,-0.2,3.3,-3,-13
O=C(COc1ccc(Cl)cc1)NCCCNC(=O)c1cccnc1,-12,.,0.0,1.0,3,4,-0.9,-1.2,10,-20
CC(C)(C)OC(=O)N/N=C/c1cccn1-c1ccc([N+](=O)[O-])cc1,-2,.,1.5,22,-3,-15,-1.6,-2.5,0,.
Cc1cc(F)ccc1S(=O)(=O)N1CCCOC1CNC(=O)C(=O)NCCCN1CCOCC1 (centres undefined),-5,-6%,1.4,1.5,4,5,-3.6,0.6,-2,-8
COc1cc(C(=O)N2CCN(c3ccccc3)CC2)c([N+](=O)[O-])cc1OC,31,?,-0.6,-8.5,-2,-2,-5.8,6.0,-4,-30
COc1ccccc1NC(=O)c1ccc2c(c1)CCN2S(C)(=O)=O,7,-10%,0.3,-2.9,-13,-6,-4.8,-0.9,1,3
CN(C)CCNC(=O)c1cc2ccccc2oc1=O,-2,-8%,0.7,.,.,.,.,1.4,-2,6
COc1ccc(CCn2c(-c3ccncc3)n[nH]c2=S)cc1OC,2,-3%,1.2,-3.4,16,14,-1.3,-6.3,5,-8
COc1ccc(OC)c(Nc2ncnc3c2cnn3-c2ccccc2)c1,35,3%,-1.2,.,.,.,.,-4.9,0,2
NC(c1ccccc1)c1cccnc1 (centres undefined),-2,1%,0.9,-1.1,12,8,1.4,-0.2,1,3
CC(/C=N/NC(=O)CCn1nnc2ccccc21)=C\c1ccccc1,-5,.,-0.6,5.3,-29,-32,-2.9,-1.8,-2,8
COc1ccc(/C=C/C(=O)NC(=S)Nc2ccc(Br)cn2)cc1,-5,3%,0.0,1.6,3,7,-0.5,0.4,.,2
COc1ccc(S(=O)(=O)N2CC3CCCN3c3ccc(C(F)(F)F)cc32)cc1 (centres undefined),9,-5%,0.4,.,.,.,.,-0.2,18,37
Cc1ccc(CNC(=O)CSc2ncccn2)cc1,1,-2%,0.1,.,.,.,.,6.7,0,-5
Clc1ccc(Nc2ncnc3ccc(Br)cc23)cc1,-30,-12%,0.6,.,.,.,.,-3.9,20,4
O=C(NCCSCc1ccc(Cl)cc1Cl)c1ccc(CN2CCOCC2)cc1,1,-3%,0.0,.,-39,-62,-11,2.6,-6,4
Cc1nn(CCCNC(=O)C2CCCO2)cc1Br (centres undefined),-5,7%,0.4,.,.,.,.,1.7,4,-6
CC(C)Cc1cc(C(=O)Nc2sc3c(c2C#N)CCCC3)no1,-2,0%,0.4,5.2,-10,-25,-8.4,1.8,-2,-10
CCCN1C(=O)/C(=C/c2ccc(C)o2)NC1=S,1,?,-0.2,.,.,.,.,3.8,-8,-1
CCn1c(SCC(=O)OC(C)C)nnc1-c1ccccc1,27,9%,-0.4,0.3,14,8,-0.3,-0.3,4,6
O=C(NCCCN1CCCCC1)c1ccc(CS(=O)c2ccc(Cl)cc2)o1 (centres undefined),-12,.,-0.6,0.8,10,3,-2.8,2.4,-6,11
CCOC(=O)c1cc([N+](=O)[O-])sc1NC(=O)c1ccc(S(=O)(=O)N2CC3(C)CC2CC(C)(C)C3)cc1 (centres undefined),-5,.,0.8,2.2,1,5,4.1,-3.4,32,48
COc1ccc(NC(=O)/C(C#N)=C\c2cc(C)n(-c3ccc(Oc4ccc([N+](=O)[O-])cn4)cc3)c2C)cc1,6,5%,-0.6,.,-1,9,0.4,8.4,9,-7
O=C(NNc1cccc(Cl)n1)Nc1ccc(F)cc1,-8,-15%,0.9,-2.2,.,.,.,0.8,-8,-10
O=C(NNS(=O)(=O)c1ccccc1[N+](=O)[O-])c1ccncc1,-2,?,-0.4,-2.0,15,11,-8.3,0.9,-2,-10
# The results go on:
SMILES,Calb FLC,Vif A3G,A1 inh,AF4-AF9 inh,Ecoli rRNA inh,Ecoli rRNA inh OD600,Ecoli rRNA inh RFP,RanGTP-Impb inh,Beta apoptosis,T cruzi inh
Cn1c(CNC(=O)CNC(=O)c2ccccc2)cc(=O)n(C)c1=O,4,-5%,0.6,-1.7,6,18,-2.1,4.8,0,-11
CCCOc1ccc(C(=O)Nc2ccccc2[N+](=O)[O-])cc1,8,-2%,-7.1,.,.,.,.,-1.7,-1,0
CCCCCC(C)n1[nH]c(=O)cc1N (centres undefined),-4,-2%,0.8,.,1,10,-1.1,0.3,-2,-12
CSc1cccc(NC(=O)COc2cccc3ccccc23)c1,1,5%,-0.2,.,.,.,.,?,-6,7
CCN(CC(=O)Nc1ccc(OC)cc1)C(=O)c1ccc2[nH]c3c(c2c1)CC(C)CC3 (centres undefined),.,.,-0.2,1.0,7,9,-0.6,.,6,.
O=C(/C=C/c1ccccc1)CC(=O)c1ccccc1O,4,27%,0.1,9.7,-33,-48,-8.6,0.2,5,-10
CN(CC(=O)N1CCN(c2ccccc2F)CC1)S(=O)(=O)c1cnc[nH]1,2,7%,0.4,.,.,.,.,-1.4,-1,-3
COc1cc2c(cc1OC)C(C(=O)NCc1cccnc1)C(c1cccnc1)N(C)C2=O (centres undefined),0,-2%,0.9,.,.,.,.,-5.0,-1,-11
CCOC(=O)[C@H]1[C@H]2COc3ccc(C)cc3[C@@H]2N2C(=O)CN(Cc3ccc(F)cc3)C(=O)[C@@]12C,.,.,-1.8,3.4,4,5,-8.2,.,-1,.
Cc1nnc(NC(=O)Cc2cccs2)s1,?,19%,1.3,.,.,.,.,5.0,-2,-24
CN(C)S(=O)(=O)c1ccc(N/C=C(\[N+](=O)[O-])S(=O)(=O)c2ccccc2)cc1,-4,2%,0.2,-31,11,10,0.0,-1.4,0,29
O=C(NCC1CCCO1)c1cccc2ccccc12 (centres undefined),-2,.,0.9,-4.3,6,9,-1.6,1.1,-2,-12
COc1ccc(Nc2nc(N3CCCCC3)c3ccccc3n2)cc1,-14,-1%,0.2,.,.,.,.,8.3,73,50
CCN1C(=O)CSC1=Nc1ccc(C(=O)O)cc1,-3,.,1.1,-2.0,7,6,-0.6,3.8,2,-13
CCc1c(C)nc(N)n2c(SCC(=O)Nc3ccccc3)nnc12,-6,3%,-0.2,.,.,.,.,1.0,0,0
Cc1cc(C)n(-c2nc(C(F)(F)F)nc3ccccc23)n1,-1,4%,1.4,-1.8,17,7,1.1,1.2,-4,3
COc1cc(OC)cc(-c2c(-c3ccc(F)cc3)c3cc(Br)ccc3n2C)c1,.,.,0.0,2.8,15,2,-0.1,.,1,.
Cc1cccc(OCCCC(=O)Nc2ccc(S(=O)(=O)Nc3onc(C)c3C)cc2)c1,2,13%,0.8,.,.,.,.,3.4,-4,5
COc1cccc(CN(CC(=O)NCc2ccccc2)C(=O)c2csnn2)c1,-4,.,0.7,1.9,-1,-11,-4.6,0.5,-2,-5

# Not all compounds are listed; the hit share may differ from the screen's.
